# Source: PubChem BioAssay (National Center for Advancing Translational Sciences (NCATS))
# YjeE inh = YjeE (TsaE) inhibition, E. coli. actives 0.05% (n = 71,000). purified YjeE, fluorescence polarisation of a bound ADP probe. AID 605. Potency, µM. P0AF67; active = well fitted falling curve; inconclusive = weaker or top-dose-only fall, or a rising curve; inactive = flat or poorly fitted curve;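 also: top concentration of the series not given in the record; excess ADP was the control for the full effect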
#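 Fluorescence polarization of a BODIPY Texas Red–ADP probe (2 uM) bound to purified YjeE (10 uM) was read after 15 min room-temperature incubation with compounds. Loss of polarization marks inhibitors; ADP serves as titrated control.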
# PK Bst = modulators of Bacillus stearothermophilus pyruvate kinase. partly purified Bacillus stearothermophilus pyruvate kinase, luminescence ATP production; ribose 5-phosphate activator present at AC10. Potency, µM. actives 1.2% (n = 51,000). AID 361; in the data active means potency below about 11 µM; inconclusive means mostly about 12 µM to 25 µM; inactive means weaker than that;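 the screen sought inhibitors and activators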;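 also: potency is read from the fitted curve at half-maximal effect; scaled between full activation by ribose 5 phosphate and full inhibition by luteolin; about four in five hits inhibit and the cells do not say which; series up to 57 µM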
# An asterisk follows results filed as active; i = inactive; ? = inconclusive; nt = not tested or not shown. Not all compounds are listed. The share of hits here may be higher or lower than overall.
# The opening 3 compounds (preview)
SMILES,YjeE inh,PK Bst
O=C(CNS(=O)(=O)c1cccs1)N1CCCC1,i,>57
CCOc1ccc(C2CC(c3ccccc3)Nc3nc(N)nn32)cc1 (stereo not given),nt,>26
CCOC(=O)N1CCN(C(=O)CN2C(=O)COc3ccc(C(C)(C)C)cc32)CC1,i,>57

# The list itself, from the start:
SMILES,YjeE inh,PK Bst
O=C(CNS(=O)(=O)c1cccs1)N1CCCC1,i,>57
CCOc1ccc(C2CC(c3ccccc3)Nc3nc(N)nn32)cc1 (stereo not given),nt,>26
CCOC(=O)N1CCN(C(=O)CN2C(=O)COc3ccc(C(C)(C)C)cc32)CC1,i,>57
CCOC(=O)c1sc2ncn(C(CC)C(=O)OC)c(=O)c2c1C (stereo not given),i,nt
O=C(NCc1cccnc1)NC(C(F)(F)F)C(F)(F)F,nt,>26
COC(=O)[C@@]1(Cc2ccccc2)C=C[C@@H](C)N1C(C)=O,i,nt
CCOC(=O)c1nc2ccccc2s1,i,nt
CC(=O)N1CCN(c2ccccc2NC(=O)COc2cc(C)ccc2C(C)C)CC1,i,>57
CCCn1nnc(NC(=O)c2ccc(Br)cc2)n1,i,>57
COc1ccc(-c2c(NC(C)=O)n(C)c3ccccc3c2=O)cc1,i,>57
COc1ccc(S(=O)(=O)n2cnc3cc(C)c(C)cc32)cc1,i,nt
COc1ccc(NC(=O)N2CC[C@@]3(CCCN(C(=O)c4cc(C(F)(F)F)cc(C(F)(F)F)c4)C3)C2)cc1,i,nt
CCOc1ccccc1C(=O)Nc1ccc(S(=O)(=O)N2CCOCC2)cc1,i,>57
Nc1ccn(-c2ccc(Cl)cc2)c(=O)c1,i,>57
O=C(COC(=O)CCN1C(=O)c2ccccc2C1=O)Nc1ccc(S(=O)(=O)N2CCCC2)cc1,i,>57
O=C1NCC(O)=C1C=NCCCO,i,>57
CCCCCn1c(=O)[nH]c2cc(C(=O)NCCCN(CC)CC)ccc2c1=O,i,>57
Cc1cc(C(=O)Nc2sc3c(c2C#N)CCC(C)C3)no1 (stereo not given),i,>57
CCOC(=O)N1CCN(C(=O)CSc2nnc(-c3ccc(C)c(C)c3)o2)CC1,i,nt
C=CCSc1nnc2c(n1)OC=Nc1ccccc1-2,i,nt
c1ccc(CCN2CN=C(Nc3nc4ccccc4o3)NC2)cc1,i,>57
CC(Oc1cccc(Cl)c1)C(=O)Nc1cc(=O)n(C)c(=O)n1C (stereo not given),i,>57
CCn1c(=O)cc(O)c2ccccc21,i,nt
Cc1cnc(CNc2ncnc3ccc(-c4ccccc4Cl)cc23)cn1,i,nt
COc1ccccc1CN1CC2(CCN(S(C)(=O)=O)CC2)C1,i,nt

# Quoted at random: four entries already listed, in no set order.
SMILES,YjeE inh,PK Bst
O=C(COC(=O)CCN1C(=O)c2ccccc2C1=O)Nc1ccc(S(=O)(=O)N2CCCC2)cc1,i,>57
CCOC(=O)N1CCN(C(=O)CSc2nnc(-c3ccc(C)c(C)c3)o2)CC1,i,nt
CCOc1ccc(C2CC(c3ccccc3)Nc3nc(N)nn32)cc1 (stereo not given),nt,>26
CCOC(=O)c1nc2ccccc2s1,i,nt

# More records.
SMILES,YjeE inh,PK Bst
Cc1c(OCC(=O)OC(C)(C)C)ccc2c3c(c(=O)oc12)CCC3,i,nt
COc1ccccc1N1CCN(C(=O)C2CCCO2)CC1 (stereo not given),i,nt
Cc1ccnc2nc(C(=O)OCCOc3cccc(Br)c3)nn12,i,>57
COc1ccc(CNc2ncnc3ccc(-c4cccnc4)cc23)c(OC)c1,i,nt
Cc1oc(-c2ccc(Cl)cc2)nc1CN1CCCC(C(=O)NCc2ccccn2)C1 (stereo not given),i,>57
COc1ccc2c3c(cccc13)NN=C2C,i,nt
COc1cc(CN2CCC(C(=O)N3CCC(C)CC3)CC2)cc(Br)c1O,i,>57
CCN1CCc2c(sc(N)c2C#N)C1,i,>57
Cc1ccc(CS(=O)(=O)CCC(=O)NCCCN2CCCC2=O)cc1,i,>57
CCOC(=O)CSC1=C(C#N)C(c2ccc(C)s2)CC(=O)N1 (stereo not given),i,nt
CCOCC(=O)N1CCN(c2ccc(F)cc2)CC1,i,>57
Clc1ccc(OCc2nnc(-c3ccccc3Br)o2)c(Cl)c1,i,nt
O=C(c1ccc2c(c1)OCO2)N(CC1CCCO1)C1(C(=O)NC2CCCC2)CCCCC1 (stereo not given),i,>57
Cc1ccnc(N2CCN(c3c4c(c(C#N)c5nc6ccccc6n35)CCC4)CC2)c1,nt,>26
CC(=O)NC(CC(=O)NCC(c1ccco1)N(C)C)c1ccccc1 (stereo not given),i,>57
CCCN1C(=O)c2cc(C(=O)NCc3ccc(OC)cc3)ccc2C1O (stereo not given),i,nt
Cc1ccc(-c2[nH]nc3c2C(c2cccnc2)C(C#N)=C(N)O3)cc1 (stereo not given),i,>57
Cc1cccc2cc(COC(=O)COc3ccccc3)c(=O)[nH]c12,i,>57
COC(=O)c1ccc(NC(=O)CCNS(=O)(=O)c2cccc3nonc23)cc1,i,>57
CC(=O)Nc1cccc(N(C)C)c1,i,nt
CCOC(=O)c1cnn2c1[nH]c(=O)c1ccccc12,nt,>26
c1ccc2c(c1)nc(NCCN1CCOCC1)c1nncn12,i,nt
Cc1ccc(Nc2cc(C)nc3nnnn23)cc1,i,>57
NC(=O)C1(N2CCCCC2)CCN(CC(=O)Nc2ccc(Oc3ccccc3)cc2)CC1,i,>57
O=C(Cn1cnc2c(nnn2-c2cccc(Cl)c2)c1=O)N1CCCC1,i,>57
# The results go on.
SMILES,YjeE inh,PK Bst
CC(=O)NC1CC2CCCC(C1)N2S(=O)(=O)c1cccc(F)c1 (stereo not given),i,>57
COc1ccc(CCNC(=O)c2c(O)c3c([nH]c2=O)CCCC3)cc1OC,i,>57
COc1ccc(C2c3c(oc4ccccc4c3=O)C(=O)N2c2ccccn2)cc1OC (stereo not given),i,nt
Cc1noc(C)c1C(=O)N1CCN(Cc2ccc3c(c2)OCO3)CC1,i,>57
O=C(CCN1C(=O)C2CC=C(Cl)CC2C1=O)Nc1ccccc1O (stereo not given),i,>57
Cn1c(C(=O)N2CCCC(C(=O)NCc3ccc4c(c3)OCO4)C2)cc2sccc21 (stereo not given),i,nt
COc1ccc(-c2nnc(SCc3ncc(-c4ccccc4)o3)o2)cc1,i,>57
CN1C(=O)C(O)(c2sc(N)nc2-c2ccccc2)c2ccccc21 (stereo not given),i,>57
FC(F)(F)c1cc(-c2ccco2)nc(-n2nnc3ccccc32)n1,i,>57
CN1CCN(c2ccccc2NC(=O)c2ccc(-c3ccccc3)cc2)CC1,i,nt
N#Cc1c(NCCCO)nc(NCc2ccccc2)c2c1CCN(Cc1ccccc1)C2,i,>57
Cc1c(NC(=O)c2cc(-c3cccs3)on2)c(=O)n(-c2ccccc2)n1C,i,>57
COc1ccc(-n2c(=O)c(-c3ccc(F)cc3)nc3cnc(OC)nc32)cc1,i,nt
CC(=O)N(Cc1ccco1)C1(C(=O)NC2CCCCC2)CCCCC1,i,>57
O=c1cnc2cnc(Nc3ccccc3)nc2n1Cc1cccs1,i,nt
Cc1cc(C)n(C(=O)c2ccncc2)n1,i,>57
COc1cc(NS(=O)(=O)c2cccc3nsnc23)c(C(=O)O)cc1OC,i,>57
CC(C)C[C@@H](CC(=O)N[C@@H](CCCN)CC(=O)N[C@@H]1CCNC[C@H]1C(=O)N[C@H](CC(=O)N[C@@H](CCC(=O)O)CC(=O)O)Cc1ccccc1)NC(=O)[C@@H]1CNCC[C@H]1N,i,nt
CC(Sc1nnc(C2CCCCC2)n1N)C(=O)NCc1ccc2c(c1)OCO2 (stereo not given),i,>57
O=C1Nc2ccccc2OC1CC(=O)N1CCCC1 (stereo not given),i,nt
COC(=O)CSc1nnc(-c2ccoc2C)n1-c1ccc(OC)cc1,i,>57
CCCC(=O)c1cc2ccccc2oc1=O,i,>57
Cn1ncc(N)c1C(=O)Nc1cccc(C(F)(F)F)c1,i,>57
C[C@@H](C(=O)Nc1ccc2ccccc2c1)[C@H]1C[C@]1(C)[C@H](NC(=O)c1cnccn1)c1ccccc1,i,nt
CCn1c2ccccc2c2nc3ccccc3nc21,i,nt
# Other structures.
SMILES,YjeE inh,PK Bst
Cc1ccc(C)c(N=C2NC(=O)CS2)c1,i,>57
Cc1onc(-c2ccccc2)c1C(=O)Oc1cccnc1,i,>57
CC(=O)c1cnc2nc(C(F)(F)F)nn2c1C,i,>57
COCCNC(=O)CN1C(=O)CSc2ncccc21,i,nt
O=C(NCc1ccco1)c1cc2ccccc2o1,i,nt
COC(=O)c1ccc(CSc2ccc3nnc(-c4ccc(OC)c(OC)c4)n3n2)o1,i,>57
COc1cc(/C=c2\sc3nc(-c4ccncc4)nn3c2=O)ccc1OC(C)=O,i,nt
Cc1cc(C)n2nc(C(=O)NCc3ccco3)nc2n1,i,>57
O=C(NCC1CCCO1)C1CCCN(S(=O)(=O)c2cccc3nsnc23)C1 (stereo not given),i,i
CC(C)(C)c1cc(CCC(=O)N2CCNCC2)c(C(C)(C)C)cc1O,i,>57
O=C1C=C(NCc2ccccc2)C2(CCCCC2)O1,i,nt
O=C1Nc2ccccc2C(O)(C(=O)N2CCCCC2)N1c1ccccc1 (stereo not given),i,nt
Cc1ccc(C(O)c2cccnc2)o1 (stereo not given),i,>57
CCOC(=O)C1=C(c2ccccc2)Nc2ncnn2C1c1cc(OC)ccc1OC (stereo not given),i,nt
CCn1c(NC(=O)c2ccco2)c(-c2ccccc2Cl)c(=O)c2ccccc21,i,>57
COc1ccccc1NC(=O)CSc1nnc(-c2ccco2)n1Cc1ccco1,i,nt
O=c1cc(CSc2nnc(COc3ccccc3)o2)c2ccccc2[nH]1,i,>57
CCN(CC(=O)O)C(=O)c1cccnc1,i,nt
Cc1ccccc1C(=O)O,i,nt
COc1ccc(OC)c(C2/C(=C(/O)c3ccccc3)C(=O)C(=O)N2Cc2ccco2)c1 (stereo not given),nt,>26
NC(=O)C1CCN(C(=O)CN2CCCc3ccccc32)CC1,i,>57
COc1ccc(OCCNS(=O)(=O)c2ccccc2)cc1,i,nt
CCCCc1ccc(NS(=O)(=O)N(C)C)cc1,i,nt
COc1ccccc1N(O)C1CC(=O)N(c2ccc(Br)cc2)C1=O (stereo not given),nt,>26
O=C1CN(C(=O)COC(=O)c2ccccc2NC(=O)c2ccco2)c2ccccc2N1,i,nt
# (list continues)
SMILES,YjeE inh,PK Bst
NC(=O)/C(=C\c1ccncc1)c1cccc2ccccc12,i,nt
C[C@@H]1C=C[C@](Cc2ccccc2)(C(=O)NCCc2c[nH]c3ccccc23)N1C(=O)c1ccccc1,i,nt
Cc1cccc(NC(=O)C2C(C(=O)O)C3C=CC2C32CC2)c1C (stereo not given),i,nt
O=C(c1ccccc1)C1CCc2occc2C1=O (stereo not given),i,>57
S=C(c1ccc(N2CCCC2)cc1)N1CCCCC1,i,>57
c1ccc2nc3c(nc2c1)sc1nc2ccccc2n13,i,?
COC(=O)Nc1nc2ccc(SC(C)C)cc2[nH]1,i,nt
CCOC(=O)c1cn(CC(=O)Nc2ccc(C(C)C)cc2)nn1,i,>57
COc1ccc(C2=CC(c3ccc(C)cc3)n3nnnc3N2)cc1 (stereo not given),nt,>26
O=C(Nc1nncs1)C1c2ccccc2Oc2ccccc21,i,>57
O=c1cc(N2CCc3ccccc32)[nH]c(=O)n1Cc1ccc(F)cc1,i,>57
O=C(Cc1ccccc1)NCCc1cn2ccsc2n1,i,nt
CCC(=O)Nc1cc(C)c(NC(=O)c2ccco2)cn1,i,>57
COc1ccc(CCNC(=O)CCC(=O)N2CCN(S(=O)(=O)c3ccccc3)CC2)cc1OC,i,>57
Cc1ccc(C(C)C)c(OCCCN2CC(C)OC(C)C2)c1 (stereo not given),i,nt
C#C[C@@]1(O)CC[C@H]2[C@H]3CCC4=Cc5oncc5C[C@]4(C)[C@@H]3CC[C@@]21C,i,nt
O=S(=O)(c1cccc(Cl)c1)N1CCCC1,i,>57
C=CCc1cccc(C2Nc3ccccc3C(=O)N2O)c1O (stereo not given),i,>57
CCOC(=O)c1c(NC(=O)CN2CCCCC2)sc2c1CCCC2O (stereo not given),i,nt
N=c1c2c3c(sc2nc2n1CCCCC2)CCCCC3,i,nt
Cn1cccc1C(=O)N1CCC2(CC1)CN(Cc1ccc(C#N)cc1)C2,i,nt
CCCn1nnc(NC(=O)COc2ccc(C3CCCCC3)cc2)n1,i,>57
N#CC1=C(N)OC2=C(C(=O)CCC2)C1C1CC=CCC1 (stereo not given),i,nt
N#C/C(C(=O)NCc1ccco1)=C1/SC=C(c2ccccc2)N1c1ccccc1,i,nt
Cc1ccc(-n2c(=O)cc(N3CCN(C(=O)c4ccco4)CC3)[nH]c2=O)cc1,i,nt
COc1ccc(S(=O)(=O)Nc2cc(C)cc(C)n2)c2ccccc12,i,nt
COC(=O)c1ccc(CN2C(=O)NC3(CCCc4ccccc43)C2=O)o1 (stereo not given),i,>11
COC(=O)c1ccc(CSc2nc3c(c(=O)n2-c2ccc(F)cc2)SCC3)o1,i,>57
Cc1cn2c(nc1=O)OC1C(O)C(COC(=O)c3ccccc3)OC12 (stereo not given),i,>57

# Reformatted with two lines to a compound: part of the list above
# Results follow in this order: YjeE inh	PK Bst
O=c1cc(N2CCc3ccccc32)[nH]c(=O)n1Cc1ccc(F)cc1
    i	>57
O=C(Cc1ccccc1)NCCc1cn2ccsc2n1
    i	nt

# At a glance, part of the list above.
SMILES,YjeE inh,PK Bst
NC(=O)/C(=C\c1ccncc1)c1cccc2ccccc12,i,nt
C[C@@H]1C=C[C@](Cc2ccccc2)(C(=O)NCCc2c[nH]c3ccccc23)N1C(=O)c1ccccc1,i,nt
Cc1cccc(NC(=O)C2C(C(=O)O)C3C=CC2C32CC2)c1C (stereo not given),i,nt
O=C(c1ccccc1)C1CCc2occc2C1=O (stereo not given),i,>57
